UCH37 DUB inh – blocks the human deubiquitinase UCH37; purified proteasome/UCH37, Ub-AMC cleavage fluorescence; inhibition, % (no concentration beside the values); actives 0.33% (n = 330,000); AID 588478; Q9Y5K5;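 active = mean of two replicates above 20%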;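 also: 0% = compound-free wells with enzyme and 100% = wells lacking proteasome; stock transfer was 100 nL into about 20 µL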
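Material: human UCH37 enzyme supplied as purified proteasome complex / Amount: 0.15 nM proteasome as dispensed / Buffer or medium: pH 7.4 Tris-HCl (50 mM) with ovalbumin, ATP-MgCl2, DTT / Times: preincubation 30 min, reaction 25 min, room temperature / Technique: AMC fluorescence from Ub-AMC cleavage, excitation 355 nm, emission 460 nm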
Ecoli growth – E. coli growth inhibition; Escherichia coli growth, OD600, 23 h; hits give low values; OD600 absorbance (test concentration not listed); actives 0.21% (n = 330,000);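 active = OD600 absorbance below the run mean of sample wells minus 3.6 SD, in any replicate, cut at about 0.56 in these data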;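 also: stock transfer was 300 nL into about 60 µL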
Bfl-1 A1 inh – inhibitors of the anti-apoptotic protein A1, read as caspase activation | MEF A1-2A-BIM cells, Caspase-Glo 3/7 luminescence, 3 h; percent of clofoctol response, vehicle zero | actives 0.066% (n = 330,000) | AID 2462 | caspase activation, % (no concentration beside the values);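 active = over half of replicate activation scores above 10%, or exactly half above 10 with the replicate mean above 10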;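 also: wells of about 30 µL received 50 nL stock; many hits fall short of the cut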
Vif A3G – HIV-1 Vif–A3G interaction blockers – biochemical, TR-FRET, GST-Vif 1-94, biotin-A3G peptide, dose response retest, primary screen (AID 1117319); TR-FRET GST-Vif / biotin-A3G peptide binding; higher % means a stronger effect; test concentration not given here; strong numbers were not always called active; one-dose inhibition, %; IC50 in µM for titrated hits; actives 0.57% (n = 260,000);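 active = above the screen mean plus three standard deviations and confirmed in dose response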;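 also: Vif residues 1-94 fused to GST binding biotinylated APOBEC3G peptide 110-148; 0% = full assay without inhibitor and 100% = GST in place of GST-Vif; retest series ran down from 100 µM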
Beta2AR agonist – activates human beta-2 adrenergic receptor causing internalization | Am2.2-beta2AR cells, FAP receptor internalization, flow cytometry; reference of the scale not given here | actives 0.43% (n = 340,000) | P07550 | response, % (test concentration not listed);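 active = response above a set limit, near 3 SD of response in nonfluorescent compounds, cut at about 42% in these data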;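 also: stock transfer was 100 nL into about 11 µL; a reference agonist was the positive control; negative values mostly stem from fluorescent compounds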
LANA-H2B inh – blocks KSHV LANA binding to histone H2A/H2B. Q9QR71. cell-free LANA-H2A/H2B peptide, fluorescence polarization. inhibition, % (no concentration beside the values). actives 0.6% (n = 320,000); in the data active = inhibition mostly above about 10%, no sharp cut-off; inactive = mostly below about 6.7%;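 also: stock transfer was 7.5 nL into about 10 µL; 0% = median of vehicle wells and 100% = median of positive control wells; one replicate is shown; the record names a cut of 25% in any replicate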
Target sequence (Q9QR71 whole entry, looked up): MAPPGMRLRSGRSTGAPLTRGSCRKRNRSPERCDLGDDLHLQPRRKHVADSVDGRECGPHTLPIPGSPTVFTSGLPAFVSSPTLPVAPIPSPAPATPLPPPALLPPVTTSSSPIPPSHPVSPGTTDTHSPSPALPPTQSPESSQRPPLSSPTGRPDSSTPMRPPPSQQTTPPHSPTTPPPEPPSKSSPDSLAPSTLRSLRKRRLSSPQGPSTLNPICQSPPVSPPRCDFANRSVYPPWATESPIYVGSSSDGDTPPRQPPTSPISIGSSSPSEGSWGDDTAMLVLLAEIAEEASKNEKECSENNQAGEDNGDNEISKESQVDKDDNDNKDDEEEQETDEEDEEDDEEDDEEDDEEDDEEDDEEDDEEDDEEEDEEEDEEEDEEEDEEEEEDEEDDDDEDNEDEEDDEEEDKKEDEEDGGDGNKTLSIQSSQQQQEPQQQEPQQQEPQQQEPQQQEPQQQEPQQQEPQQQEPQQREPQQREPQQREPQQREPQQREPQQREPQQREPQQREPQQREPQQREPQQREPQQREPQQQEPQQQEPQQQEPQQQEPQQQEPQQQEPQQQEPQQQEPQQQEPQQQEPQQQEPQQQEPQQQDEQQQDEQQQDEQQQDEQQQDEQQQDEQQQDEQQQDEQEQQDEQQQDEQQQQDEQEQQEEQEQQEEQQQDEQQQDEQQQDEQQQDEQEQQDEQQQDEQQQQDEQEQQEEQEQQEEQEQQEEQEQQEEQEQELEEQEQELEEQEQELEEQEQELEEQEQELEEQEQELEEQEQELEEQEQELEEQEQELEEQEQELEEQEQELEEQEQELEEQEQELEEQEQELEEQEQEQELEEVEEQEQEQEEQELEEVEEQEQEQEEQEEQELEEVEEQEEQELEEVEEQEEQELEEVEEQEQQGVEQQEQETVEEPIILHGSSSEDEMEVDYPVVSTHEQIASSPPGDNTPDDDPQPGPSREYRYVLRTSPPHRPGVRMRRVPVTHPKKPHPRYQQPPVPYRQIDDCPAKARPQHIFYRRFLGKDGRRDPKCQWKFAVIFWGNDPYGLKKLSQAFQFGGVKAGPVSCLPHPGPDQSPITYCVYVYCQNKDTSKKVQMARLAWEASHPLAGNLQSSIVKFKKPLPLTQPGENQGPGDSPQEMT
HNF4A DNA FP – change in binding of human HNF4 alpha to DNA | AID 1224865 | P41235 | HNF4a-FITC DNA binding, fluorescence polarization, 1 h | activity change, % at 10 µM | actives 0.3% (n = 360,000); in the data active = activity change above about 30%, passing the limit was not always enough;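 also: controls were the assay level and a saturating level of protein; the project sought stronger binding though the title names inhibitors; some compounds called inactive have numbers as strong as hits; positive values seem to mean higher polarization but the record does not say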
* marks the source's active call; other numbers are inactive results; nt = not tested or not shown.

SMILES	UCH37 DUB inh	Ecoli growth	Bfl-1 A1 inh	Vif A3G	Beta2AR agonist	LANA-H2B inh	HNF4A DNA FP
N#CCCNS(=O)(=O)c1ccc(C(=O)OCCCOC(=O)c2ccc(S(=O)(=O)NCCC#N)cc2)cc1	-2.0	0.716	-0.1	nt	-3.8	0.6	-1.1
Cc1cc(NC(=O)c2c(Br)cnn2C)no1	3.0	0.71	nt	nt	-3.5	nt	7.8
Cc1nc(/C=C/c2ccccc2)[nH]c(=O)c1-c1ccccc1	-33.5	0.711	-1.1	-1.1%	-8.8	0.7	-1.1
CC(=O)NS(=O)(=O)c1ccc(NC(=O)c2cc(-c3ccc(C)c(C)c3)nc3ccccc23)cc1	1.7	0.733	-0.1	12.6%	4.5	-5.6	0.8
CNC(=S)NNC(=O)CNc1ccc(C)c(Cl)c1	5.6	0.659	-0.5	4.3%	2.9	-0.7	52.9*
COc1cc(OC)cc(C(=O)OCC(=O)NC(c2ccccc2)c2ccccc2)c1	-0.4	0.742	0.6	nt	-7.4	2.9	-2.2
CCC(C)NC(=O)c1ccccc1NC(=O)c1ccc(CSc2ccccc2)cc1 (stereo unspecified)	3.4	0.701	1.1	2.1%	-3.4	3.0	-2.4
CCOC(=O)C1=C(COC(=O)[C@@H](NC(=O)c2cccc(C)c2)C(C)C)NC(=O)NC1C (stereo partly specified)	1.5	0.725	1.2	-7.0%	-2.4	2.5	2.7
CCOc1cc(-c2c(C#N)c(N)nc3c2CCCC3)ccc1O	-64.8	0.669	1.0	15.8%	-0.5	-3.0	2.8
CC(C)CCC(O)(c1ccccc1)C(CN1CCOCC1)c1ccccc1 (stereo unspecified)	1.4	0.672	0.9	-2.7%	3.2	2.7	1.5
O=C(CC(c1ccccc1)(c1ccccc1)c1ccccc1)N[C@@H](Cc1ccccc1)C(=O)O	3.4	nt	0.4	-5.4%	1.4	16.1*	1.8
Cc1nnc(SCc2ccccc2F)n1NCc1cccs1	4.8	0.689	-0.8	13.6%	-3.5	-0.1	3.4
CC(=O)N1CCCc2cc(S(=O)(=O)N3CCCC(C)C3)ccc21 (stereo unspecified)	2.6	0.672	-0.5	nt	0.9	-0.6	-2.1
COc1cccc(-n2c(SCC(N)=O)nc3ccccc3c2=O)c1	1.0	0.726	0.5	-3.0%	8.5	1.0	30.0
CN1CCN(C(=S)NC(=O)/C=C/c2cccs2)CC1	9.9	0.631	0.4	nt	-4.5	6.0	1.4
CN1C(=O)c2ccc(NC(=O)CCS(=O)(=O)c3ccccc3)cc2C1=O	-181.9	0.738	0.7	nt	9.1	1.4	-5.7
N#Cc1c(N)oc(-c2ccccc2)c1-c1ccccc1	-0.5	0.73	0.6	3.8%	-0.8	-3.2	10.4
Cn1c(SCC(=O)Nc2sccc2C(N)=O)nnc1-c1ccncc1	4.4	0.683	-0.1	9.1%	7.1	2.2	-2.0
CC1CN(S(=O)(=O)c2ccc(NC(=O)c3cc(-c4ccccc4O)n[nH]3)cc2)CC(C)O1 (stereo unspecified)	3.8	0.68	0.4	-7.2%	18.8	0.0	-1.4
COc1ccc(-c2nn3cnnc3s2)cc1OC	-6.7	0.678	-0.6	17.4%	9.8	1.5	-0.8
Cn1c(=O)c2[nH]c(-c3ccccc3O)nc2n(C)c1=O	nt	nt	-1.6	27.7%	nt	-0.5	nt
COCCOC(=O)c1c(C)oc2ccc(OCC=C(C)C)cc12	4.2	0.677	0.0	0.3%	3.0	0.8	-2.0
COc1ccccc1C(=O)NNC(=O)c1ccc(Br)o1	-1.8	0.697	-0.2	0.5%	-1.9	-1.8	-0.6
COCCCNC(=O)CCc1nc(-c2ccccc2Cl)no1	4.6	0.696	0.7	-4.5%	1.4	-2.3	-3.6
Cc1ccc(NC(=O)c2cc(S(=O)(=O)N3CCCC3)c[nH]2)c(C)c1	5.7	0.668	0.7	nt	-2.1	-2.6	-4.5
CCN(CC)S(=O)(=O)c1ccc(S(=O)(=O)N2CCCC(C(=O)NC3CC3)C2)cc1 (stereo unspecified)	-0.5	0.714	-0.5	nt	-3.0	0.9	0.5
O=C(NCCO)C1(c2ccccc2)CCCC1	1.5	0.789	0.5	-1.4%	-4.2	2.3	0.4
CC1=NC(C(F)(F)F)(C(F)(F)F)C2=C(CC(C)(C)CC2=O)N1Cc1ccco1	2.3	0.621	1.3	4.0%	4.3	2.2	-1.1
O=C(CSc1nnc(Cc2cc(=O)[nH]c(=O)[nH]2)n1-c1ccccc1)N1CCCc2ccccc21	-2.0	0.701	0.0	-1.9%	3.4	-3.4	2.5
CCCC(=O)Nc1ccccc1NC(=O)C1CCCCC1	4.0	0.701	-0.4	-7.9%	-4.3	2.1	2.8
C[N+]12CCC(CC1)C(OC(=O)C(O)(c1ccccc1)c1ccccc1)C2 (stereo unspecified)	5.1	0.714	1.4	32.0%	-1.5	-11.5	3.2
Cn1c(C(O)c2ccc(Br)cc2)nc(Cl)c1Cl (stereo unspecified)	5.1	0.603	0.0	-3.1%	-4.1	2.7	5.3
CC1c2ccccc2-c2ccccc2N1C (stereo unspecified)	-30.5	0.636	nt	3.8%	3.9	nt	-5.3
COc1ccc(S(=O)(=O)N2c3ccccc3OCC2c2ccccc2)cc1 (stereo unspecified)	4.5	0.704	-0.5	1.4%	12.2	-0.5	-1.4
COc1ccc(OC)c(C(=O)Cn2c3[n+](c4ccc(C(F)(F)F)cc42)CCCCC3)c1	-0.4	0.693	1.0	2.9%	0.5	-0.1	0.0
C/C(=N\NC(=O)CN(c1ccccc1)S(=O)(=O)c1ccccc1[N+](=O)[O-])C(C)(C)C	nt	nt	-0.5	nt	-5.4	-1.4	1.1
COc1ccc(S(=O)(=O)N(CCCN2CCCC2=O)Cc2cc3c(C)cc(C)cc3[nH]c2=O)cc1	-4.0	0.771	nt	6.1%	1.0	nt	-1.5
COc1ccc(/C(C)=N/NC(=O)c2ccc3nc[nH]c3c2)cc1	nt	nt	0.4	nt	2.2	2.7	-5.2
Cc1ccc(C(C)C)c(OCc2nn(CC(=O)c3ccc(Cl)cc3)c3[n+]2CCCCC3)c1	6.6	0.071*	0.5	13.4%	32.5	3.1	7.6
COc1ccc(-c2nnc(SCC(=O)Nc3c(Cl)cc(Cl)cc3C(=O)O)o2)cc1	-1.7	0.685	-0.6	-14.5%	-5.5	3.7	-5.4
Cc1ccc(-c2nnc(N3CCN(c4ccccn4)CC3)c3ccccc23)cc1	5.0	0.719	-0.2	-1.8%	21.2	-5.9	1.1
O=C(c1ccco1)N1CCN(C(=O)C(Cc2ccccc2)NS(=O)(=O)c2cccs2)CC1 (stereo unspecified)	1.6	0.635	0.3	-3.2%	-12.8	2.6	-0.3
O=C(CCc1ccccc1)N[C@@H]1c2ccccc2CC[C@@H]1OCc1ccccc1	2.7	0.694	nt	-2.3%	-2.8	nt	1.3
O=C(O)CSc1nc2ccccc2nc1Cc1ccccc1F	5.3	0.686	0.4	-33.5%	5.5	-0.4	2.7
Cc1ccc(OCC(=O)Nc2ccc(C(N)=O)cc2)cc1	0.4	0.655	0.8	-1.1%	0.8	8.8	1.5
O=C1NC(=S)SC1=Cc1ccc(F)cc1	14.0	0.652	nt	2.0%	9.2	nt	-0.9
CCOc1ccccc1C(=O)Nc1nnc(COC)s1	0.2	0.722	0.6	0.6%	3.2	-4.9	0.4
Fc1ccccc1Nc1ncnc2c1nnn2Cc1ccccc1	0.5	0.688	-0.4	0.6%	-2.9	-5.2	4.5
CC1(C)Oc2ccc3ccc(=O)oc3c2C[C@H]1O[C@@H]1O[C@H](CO)[C@@H](O)[C@H](O)[C@H]1O	-31.2	nt	0.3	nt	11.8	4.8	-3.2
CC(=O)c1ccc(-c2ccc(C(=O)Nc3nc(C)c(C(C)=O)s3)o2)cc1	-16.8	0.684	-0.8	0.5%	8.0	1.3	9.8
O=C(CCCn1c(SCC(=O)Nc2ccccc2Cl)nc2ccccc2c1=O)NCC1CCCO1 (stereo unspecified)	3.8	0.672	1.3	nt	-2.5	0.4	5.6
Cc1occc1C(=O)/C(C#N)=C/c1ccc(O)c(Br)c1	13.1	0.688	-7.3	nt	11.9	-4.6	14.8
CC(=O)c1ccc(N2CCN(C(=O)CCCc3nc4ccccc4s3)CC2)cc1	5.6	0.72	-1.1	-16.2%	3.4	-0.4	3.1
Cc1cc(C)cc(-n2c(SCC(=O)NCc3ccco3)nc3ccccc3c2=O)c1	-3.4	0.757	0.8	-8.4%	3.8	0.6	0.5
CCN(CC)c1ccc(/C=N/NC(=O)c2ccco2)c(O)c1	nt	nt	-4.2	3.8%	40.4	-12.7	14.3
CC(=O)Oc1ccc2nc(-c3ccco3)oc(=O)c2c1	nt	nt	-3.1	-3.3%	-5.2	-1.1	1.3
CCC(CCNC(=O)c1ccccc1)(CCNC(=O)c1ccccc1)[N+](=O)[O-]	nt	nt	nt	-10.6%	-11.9	nt	-2.2
Cc1ccc(CNC(=O)COC(=O)c2ccc(Br)cc2)cc1	-0.2	0.632	0.1	-1.9%	-1.2	-2.0	0.8
O=C(CNS(=O)(=O)c1ccc(Br)cc1Cl)OCC(=O)N1CCCC1=O	1.3	0.722	-0.2	3.6%	0.9	-0.5	3.4
CNc1nc(-c2ccccc2)cc(C)c1S(C)(=O)=O	nt	nt	1.5	-2.9%	-3.7	4.2	0.7

Exported bar-delimited: part of the list above.
SMILES | UCH37 DUB inh | Ecoli growth | Bfl-1 A1 inh | Vif A3G | Beta2AR agonist | LANA-H2B inh | HNF4A DNA FP
CC(=O)N1CCCc2cc(S(=O)(=O)N3CCCC(C)C3)ccc21 (stereo unspecified) | 2.6 | 0.672 | -0.5 | nt | 0.9 | -0.6 | -2.1
COc1cccc(-n2c(SCC(N)=O)nc3ccccc3c2=O)c1 | 1.0 | 0.726 | 0.5 | -3.0% | 8.5 | 1.0 | 30.0

Next section:
SMILES	UCH37 DUB inh	Ecoli growth	Bfl-1 A1 inh	Vif A3G	Beta2AR agonist	LANA-H2B inh	HNF4A DNA FP
COc1ccc(N2CCN(C(c3cccs3)C(C)NC(=O)C(=O)N3CCOCC3)CC2)cc1 (stereo unspecified)	1.2	0.702	-0.6	2.7%	3.7	4.9	0.0
O=C(CNCc1cccs1)Nc1ccc(N2CCCCCC2)cc1	nt	nt	-0.7	nt	1.3	1.0	-5.0
Cc1nnc(SCC2=C(C(=O)O)N3C(=O)C(NC(=O)Cn4nc(C(F)F)cc4C)C3SC2)s1 (stereo unspecified)	0.1	0.488*	-1.1	28.7%	-5.0	-2.5	-2.3
CC(=O)Nc1ccc(C(=O)OCC(=O)N2CC3(C)CC2CC(C)(C)C3)cc1 (stereo unspecified)	1.2	0.717	0.2	-3.8%	8.6	3.9	-0.5
CC(C)OCCCNC(=O)CCSc1ccc(Cl)cc1	-0.6	0.706	-1.1	-0.4%	7.1	-0.9	-4.5
CC1(C)OC1COc1c2ccoc2cc2oc(=O)ccc12 (stereo unspecified)	-16.8	0.652	0.8	nt	0.7	0.9	4.8
CC1CN(C(=O)C2CCCC2)C(C)CN1C(=O)C1CCCC1 (stereo unspecified)	-1.0	0.711	0.8	-5.3%	-2.7	-3.8	1.0
CCN1C(=O)/C(=C/c2cn(C)nc2C)SC1=S	7.3	0.694	nt	0.4%	-2.5	nt	-0.4
CC(=O)NCC(=O)OCC(=O)c1ccc2ccccc2c1	-34.8	0.669	-1.9	2.5%	-7.0	2.6	-0.9
O=C(COc1ccc2c(C(F)(F)F)cc(=O)oc2c1)Nc1ccc2c(c1)OCCO2	-1.0	0.685	-0.1	-6.0%	-0.3	0.8	-2.3
O=C(NCc1cccnc1)Nc1cccc(C(F)(F)F)c1	1.9	0.553	0.3	nt	3.0	0.4	-1.0
Nc1c(C(=O)C2CC2)sc2nc3c(cc12)CCC3	-124.6	0.643	-1.4	10.9%	1.7	-1.2	2.2
COc1ccc(CNC(=O)c2ccccc2C(=O)O)cc1	5.6	0.696	-0.5	-4.2%	-5.4	-1.5	1.6

Source: PubChem BioAssay
